Screens: PubChem, National Center for Advancing Translational Sciences (NCATS)
GLA inh pH 4.5 = qHTS Assay for Inhibitors of Human alpha-Galactosidase at pH 4.5 | AID 1467, 2008 | 230,000 tested, under 10 active | activity change, negative = inhibition, % at 105 µM | purified enzyme, 4-MU-alpha-Gal fluorescence, pH 4.5 | Alpha-galactosidase A (Homo sapiens), P06280; inconclusive = small, poorly fitted or top-dose-only inhibition, or a rising curve; inactive = flat fitted curve, though single readings scatter; no compound was filed as active;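 also: 0% = full activity with enzyme and -100% = basal without enzyme; dose as in the result columns while the protocol names 77 µM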
Target sequence (P06280 whole entry, looked up): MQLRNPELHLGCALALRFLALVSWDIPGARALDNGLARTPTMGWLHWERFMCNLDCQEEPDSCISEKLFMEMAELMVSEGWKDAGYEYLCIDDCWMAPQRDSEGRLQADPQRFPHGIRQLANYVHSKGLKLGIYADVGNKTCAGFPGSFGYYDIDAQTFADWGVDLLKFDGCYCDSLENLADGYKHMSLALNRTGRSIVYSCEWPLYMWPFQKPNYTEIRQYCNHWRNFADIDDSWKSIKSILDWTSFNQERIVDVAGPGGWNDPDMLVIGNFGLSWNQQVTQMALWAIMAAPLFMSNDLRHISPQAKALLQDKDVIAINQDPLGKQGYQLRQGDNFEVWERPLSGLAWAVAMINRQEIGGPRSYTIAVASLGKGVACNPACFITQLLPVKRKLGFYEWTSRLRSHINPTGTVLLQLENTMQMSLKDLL
Rango release inh = qHTS Assay for Inhibitors of RanGTP induced Rango (Ran-regulated importin-beta cargo) - Importin beta complex dissociation; hit rate 0.071% among 340,000; Biochemical FRET Rango-importin beta, RanGTP-induced dissociation; Snurportin-1 (Homo sapiens) + GTP-binding nuclear protein Ran (Homo sapiens) + Importin …; Potency, µM (titrated, usually from 46.1 µM), inactives show top-dose activity change, negative = inhibition; AID 540253, 2011; active means falling FRET ratio curve, often poorly fitted, with flat reads before Ran was added; inconclusive means other falling curves, or compound fluorescence or quenching; inactive means flat or rising ratio curve;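 also: potency is read from the fitted curve at half-maximal effect; % of control where 0% means no effect; nearly all actives have a fitted effect of over 45% in size; -100% = wells without RanGTP and RCC1; the record marks most hits as doubtful in a second field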
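Rango FRET biosensor (snurportin-1 IBB flanked by N-terminal EYFP and C-terminal CFP10) at 0.1 uM, with 0.25 uM importin beta in PBS, 1mM DTT, 0.02% Tween-20, 0.1% BSA. 0.6 uM Ran, 2mM GTP and 0.2 uM RCC1 were then added for 45 min at room temperature. Inhibition read as loss of FRET rise.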
Rango complex inh = qHTS Assay for Inhibitors of Rango (Ran-regulated importin-beta cargo) - Importin beta complex formation; Rango CFP/YFP FRET sensor + importin beta, 45 min; hit rate 0.031% among 340,000; AID 540263, 2011; Importin subunit beta-1 (Homo sapiens), Q14974; Potency, µM (top dose mostly 92.2 µM), inactives show top-dose inhibition of complex formation; active = rising FRET ratio curve, often small or poorly fitted; inconclusive = mostly compound fluorescence or quenching in the first reads; inactive = flat curves in all reads;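 also: potency is read from the fitted curve at half-maximal effect; 0% = DMSO wells and 100% = buffer wells lacking importin beta; nearly all actives have a fitted effect of over 15% in size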
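Inhibition scored from the CFP 486 nm/YFP 530 nm FRET ratio 45 min after adding 0.125 microM importin beta to 50 nM Rango biosensor preincubated 5 min with compound (room temperature, PBS with DTT, Tween-20, BSA). No-importin wells as positive control.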
miR-21 FLuc = qHTS Assay for Modulators of miRNAs and/orActivators of miR-21; HeLa miR-21 FLuc reporter, luciferase, 48 h; Potency, µM (doses to about 38.3 µM), for the others: at the highest dose reporter change, positive = more light; 340,000 tested, under 10 active; active = well fitted rising curve with a large enough effect; inconclusive = small, poorly fitted or top-dose-only effect; inactive = no such curve, though single readings can be large or run the other way;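 also: % of control where 0% means no effect; miR-21 action dims this reporter so a rising signal means less miR-21 action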
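Using DMEM plus 10% FBS, HeLa miR-21-FLuc cells are incubated with test compounds (final up to about 40uM) for 48 hours; firefly luciferase signal is then imaged following reagent-mediated lysis.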
Numbers without * were called inactive; ? = inconclusive; / = no result given; & = joins results of further samples. Only part of the results is shown. The share of hits here may be higher or lower than overall.

SMILES	GLA inh pH 4.5	Rango release inh	Rango complex inh	miR-21 FLuc
CC(=O)CCS(=O)(=O)c1ccc(NC(C)=O)cc1	6.2	?	-7.3%	7.3%
O=C1NC(NS(=O)(=O)c2ccccc2)(C(F)(F)F)C(=O)N1c1cccc(Cl)c1 (centres undefined)	/	11.8%	2.9%	-0.5%
CCC(NC(=O)CN1CCN(C(=O)c2cccs2)CC1)c1ccc(C)cc1 (centres undefined)	/	-1.2%	0.3%	/
CCCc1cc(=O)oc2cc(OCc3ccc(OC)cc3)c(Cl)cc12	2.5	13.2%	-3.4%	-10.2%
Cc1cc(C)c(S(=O)(=O)Nc2ccc(-c3cn4ccccc4n3)cc2)c(C)c1	4.6	-25.0%	?	1.0%
COc1cc(OC)c(N(C)S(=O)(=O)c2cccc(C(=O)OCC(=O)c3c[nH]c4ccccc34)c2)cc1Cl	-2.0	1.8%	-0.4%	29.3%
Cc1cc(C)nc(NC(N)=S)n1	2.1	-2.4%	-0.1%	0.8%
O=S(=O)(Nc1ccc2nc(-c3ccco3)[nH]c2c1)c1ccccc1	-5.3	24.0%	5.6%	-26.2%
O=C(C1=C[C@@H](c2ccc(C(F)(F)F)cc2)C[C@@H](OCc2ccc(CO)cc2)O1)N1CCN(Cc2ccccc2)CC1	-5.2	0.7%	0.7%	14.7%
Cc1ccc2oc(C(F)(F)C(F)F)cc(=O)c2c1	3.1	8.9%	5.0%	2.8%

Brought forward from above: two entries, then new ones.
SMILES	GLA inh pH 4.5	Rango release inh	Rango complex inh	miR-21 FLuc
O=C(C1=C[C@@H](c2ccc(C(F)(F)F)cc2)C[C@@H](OCc2ccc(CO)cc2)O1)N1CCN(Cc2ccccc2)CC1	-5.2	0.7%	0.7%	14.7%
Cc1ccc2oc(C(F)(F)C(F)F)cc(=O)c2c1	3.1	8.9%	5.0%	2.8%
Cc1onc(-c2c(Cl)cccc2Cl)c1NC(=O)NN(C)C	-13.0	-16.3%	0.6%	1.4%
CC(C)C(=O)N(Cc1cc2ccccc2[nH]c1=O)C(C)(C)C	-0.2	7.6%	-0.4%	1.3%
Cc1csc(NC(=O)CSc2ncnc3c2cnn3-c2ccccc2Cl)n1	4.3	-4.4%	1.6%	3.7%
CCSC1=C(C#N)C(c2ccccc2C)CC(=O)N1 (centres undefined)	3.0	-12.3%	?	-3.0%
Cc1cccc(C)c1NC(=O)C(c1cccs1)N(Cc1ccco1)C(=O)Cn1nnc2ccccc21 (centres undefined)	-4.5	3.0%	1.6%	-0.1%
CCOC(=O)c1ccc(-c2cccc(-c3cc(=O)oc4cc(OC)cc(OC)c34)c2)cc1	-7.6	-11.6%	-0.8%	/
CC1(c2ccccc2Cl)NC(=O)N(CC(=O)NCc2ccc3c(c2)OCO3)C1=O (centres undefined)	/	-3.9%	0.3%	0.3%
O=C(O)c1ccc(Cl)c(NC(=O)C2CCCN2S(=O)(=O)c2cccc3nsnc23)c1 (centres undefined)	-3.7	-1.4%	3.7%	-0.8%
COc1ccccc1C(CCNCc1ccc(N(C)C)cc1)c1ccc(OC(C)C)cc1 (centres undefined)	/	4.3%	-1.4%	?
O=C(Nc1ccccc1)C(c1ccccc1)c1ccccc1	/	-7.0%	-2.6%	-2.2%
CC[C@]12c3[nH]c4cc(CCC(=O)N(C)C)ccc4c3CCN1C(=O)[C@@H](CC(=O)NCCN1CCOCC1)C[C@@H]2C(=O)N1CCN(C(=O)C2CC2)CC1	/	-6.4%	2.7%	/
CC(NC(=O)C(=O)NCCC1=CCCCC1)c1ccccc1 (centres undefined)	-3.4	0.2%	4.6%	-13.7%
COc1cccc(C(=O)N2CCN=C2SC)c1	3.7	0.2%	-0.4%	1.0%
COc1ccc(C(=O)N/N=C2/SCC(=O)N2Cc2ccc3c(c2)OCO3)cc1OC	-9.5	-0.8%	3.1%	-6.3%
Cc1onc(-c2ccccc2Cl)c1C(=O)NC(=S)Nc1ccc(C(C)C)cc1	-0.9	-3.2%	-1.0%	-1.1%
O=C(Nc1nc(-c2ccccc2)cs1)C1CCCN(S(=O)(=O)c2ccccc2)C1 (centres undefined)	-7.9	-0.4%	-1.1%	?
C=CC(=O)N1C/C=C\C(c2ccc(OC)cc2)N(Cc2ccc(F)cc2)C(=O)C1 (centres undefined)	5.1	2.2%	0.2%	2.5%
COc1ccc(CCNC(=O)CSc2nc3[nH]c(=O)cc(O)c3s2)cc1	/	-17.4%	?	/
CC(=O)NC1C(OCCOc2ccc(Cl)cc2C)OC(CO)C(O)C1O (centres undefined)	/	15.3%	-5.6%	-2.5%
CCN(CC)C(=O)c1ccc(Nc2nnc(C)c3ccccc23)cc1	-2.0	4.3%	-1.1%	-20.1%
COc1cc(C(=O)Nc2c(C(=O)O)[nH]c3ccc(Br)cc23)cc(OC)c1OC	/	-2.3%	-1.2%	4.0%
O=C(CN1CCSCC1)N/N=C/c1cccc(Cl)c1	6.3	12.7%	0.4%	-13.6%
Cn1ccnc1SCC(=O)Nc1ccc2ccccc2c1	-3.8	-4.4%	0.7%	-28.8%
Cc1cc(OCCCn2ccnc2)cc(C)c1Cl	-6.8	6.8%	3.6%	-8.1%
COc1ccc(NC(=O)Nc2ccc(CC(=O)O)cc2)cc1	-0.7	-1.8%	-1.2%	2.4%
COc1ccc(CNC(=O)CN(C(=O)CCC(=O)Nc2nccs2)c2cccc(C)c2)cc1	/	10.5%	2.4%	-3.5%
COc1ccccc1N(C(=O)CNS(=O)(=O)c1ccccc1)C(C(=O)NCc1ccco1)C(C)C (centres undefined)	-14.6	-7.2%	-0.2%	-4.2%
CC1=C(C(N)=O)C(c2cccnc2)n2nc(SCc3ccccc3Cl)nc2N1 (centres undefined)	2.1	-0.2%	1.7%	-4.7%
Cc1cc(C)n2nc(C(=O)N/N=C/c3ccc(O)cc3)nc2n1	-1.6	21.8%	5.3%	1.9%
O=C(O)COCC(=O)N1CCCN(c2nccc(C(F)(F)F)n2)CC1	/	-5.0%	0.1%	-1.8%
COC(=O)c1ccc2nc(-c3cccc(N)c3)cn2c1	1.9	-0.2%	0.0%	24.8%
O=C(CCCCCN1C(=O)CCC1=O)Nc1ccc(Cl)c(C(F)(F)F)c1	-1.0	-14.0%	5.5%	5.6%
O=C(Nc1ccccc1Cl)C1C2CCCCC21 (centres undefined)	/	7.3%	-1.0%	/
COc1cccc(C(=O)Nc2c(F)cccc2F)c1	0.0	1.3%	-0.9%	1.2%
Cc1onc(-c2ccccc2)c1C(=O)OCCOc1cccc(Cl)c1	/	15.8%	?	15.8%
Clc1ccc(-c2ccc(/C=N/Nc3nncc(-c4ccccc4)n3)o2)cc1	-3.3	11.4%	-0.4%	-1.4%
COC(=O)c1c(NC(C)=O)sc2c1CCCCC2	-1.7	0.1%	-1.1%	-4.0%
COc1ccc(C(O)P(=O)(OC(C)C)OC(C)C)c(OC)c1 (centres undefined)	0.7	-12.4%	0.6%	-2.5%
COc1ccc(CCN2C(=O)CC(N3CCOCC3)C2=O)cc1 (centres undefined)	-2.5	0.7%	-0.4%	-8.2%
Cc1nn(C)c(C)c1NC(=O)CN1CCC(O)(c2ccc3c(c2)OCO3)CC1	-1.7	-8.7%	-2.0%	-1.4%
Cc1nnc(SCC(=O)Nc2cc(C(N)=O)cc(C(N)=O)c2)n1-c1ccccc1	/	-2.8%	-4.0%	0.2%
O=C(O)c1ccccc1OC(=O)C12CC3CC(CC(C3)C1)C2	-5.4	8.6%	0.1%	-2.3%
CCOC(=O)N1CCN(C(=O)CN(c2cccc(C(F)(F)F)c2)S(C)(=O)=O)CC1	1.6	2.5%	-5.5%	-2.4%
O=C(NCCCn1ccnc1)Nc1ccc(Cl)cc1	12.5	-6.6%	?	-16.5%
COCC(=O)NNS(=O)(=O)c1ccccc1[N+](=O)[O-]	-0.8	-3.9%	0.9%	-3.8%
CCOc1ccc(C(=O)NCCCCNC(=O)c2ccc(OCC)cc2)cc1	/	2.3%	0.6%	-12.8%
CCOC(=O)CSC1=NN2CCS(=O)(=O)N=C2S1	-1.3	-8.0%	1.0%	0.0%
CC(NC(=O)c1ccccc1C(=O)O)c1ccc(-n2ccnc2)cc1 (centres undefined)	/	1.3%	-1.5%	2.4%
CCOC(=O)c1c(C)n(-c2ccc(C)cc2)c2ccc(OCC(O)CNCC3CCCO3)cc12 (centres undefined)	-16.4	-2.9%	3.2%	4.8%
O=C(COC(=O)C1CCN(S(=O)(=O)c2cccs2)CC1)Nc1ccc(F)cc1Cl	/	-3.5%	-3.3%	/

The list goes on.
SMILES	GLA inh pH 4.5	Rango release inh	Rango complex inh	miR-21 FLuc
O=C(Cc1cccc2ccccc12)N/N=C/c1ccc(Sc2nc3ccccc3s2)o1	4.1	-28.8%	0.1%	14.9%
CCOc1cccc(NC(=O)/C(C#N)=C/c2cccnc2)c1	2.0	1.2%	-0.1%	-3.6%
COC(=O)CN(C)C(=O)c1cccc(OC2CCN(S(=O)(=O)N(C)C)CC2)c1	/	-1.8%	1.1%	-1.1%
COc1ccc(C(=O)c2ccc(CC(=O)O)s2)cc1	-0.9	6.2%	1.5%	?
CC(C(=O)O)N1c2cccc3cccc(c23)S1(=O)=O (centres undefined)	/	0.9%	2.6%	0.9%
COCCN1C(=O)C(CC(=O)Nc2ccc(C(C)=O)cc2)SC1=Nc1ccccc1 (centres undefined)	-0.6	13.6%&4.1%	0.7%&-3.6%	5.9%
Cc1cc(CNC(=S)Nc2ccc(Br)cc2Cl)nn1C	3.4	-10.3%	-2.6%	-13.8%
COc1cc(C#N)c(NC(=S)N2CCOCC2)cc1OC	-20.1	/	/	-18.0%
CCOc1ccccc1NC(=O)CCc1nnc2ccc(NCc3ccco3)nn12	/	0.0%	-0.9%	-7.5%
O=C(NCCOc1ccccc1F)C1CCC(=O)N(CCc2cccc(F)c2)C1 (centres undefined)	/	-12.4%	2.9%	0.7%
COCCCNC(=O)c1ccccc1-c1cc(C)no1	0.4	5.0%	-0.5%	-0.5%
OC(CNC1CCCC1)COc1ccc(Cl)cc1 (centres undefined)	/	0.3%	-3.4%	-0.4%
Cc1cc(C)n(-c2nc3c(c(=O)[nH]c(=O)n3C)n2Cc2cccc(Br)c2)n1	9.9	-9.0%	3.3%	-0.4%
COc1ccc(/C=N/NC(=O)c2sc3nc(C)cc(C)c3c2N)cc1	12.7	?	?	-4.4%
COc1cccc(C(=O)Nc2ncc3c(n2)CC(c2ccc(OC)cc2OC)CC3=O)c1 (centres undefined)	0.2	2.5%	-6.3%	17.0%
CCOC(=O)c1cnc2ccccc2c1Nc1cc(C(=O)O)ccc1C	-4.7	11.7%	-2.4%	-0.9%
CCSc1ccccc1C(=O)Nc1ccc2c(c1)OCO2	-10.5	-2.8%	-0.7%	-41.2%
CCC(=O)c1cc(-c2nc3ccccc3n2C)n(C)c1	3.7	-12.6%	6.9%	-15.8%
Cc1cc(=O)oc2cc(OCC(=O)Nc3nnc(C4CC4)s3)ccc12	7.5	6.7%	-1.7%	-1.0%
COc1ccc2c(c1)C1CC(C)(NC(=O)C1S(=O)(=O)c1ccc(F)cc1)O2 (centres undefined)	-2.3	24.8%	0.2%	-4.7%
Cc1ccccc1Nc1ncnc2c1cnn2-c1ccccc1	-0.8	14.1%	-1.1%	-57.9%
COc1cccc(NC(=O)CN(C)S(=O)(=O)c2ccc3c(c2)CCC(=O)N3)c1	/	-2.7%	-3.6%	-0.3%
Cc1c(Nc2nc3ccccc3n3cnnc23)cccc1[N+](=O)[O-]	/	2.1%	2.6%	1.5%
CCOC(=O)C1CCCN(CC(=O)Nc2ccc(C(=O)Nc3ccccc3OC)cc2)C1 (centres undefined)	/	2.4%	2.1%	/
CC(NC(=O)Nc1ccccc1)C(c1cccs1)N1CCN(c2ccccc2)CC1 (centres undefined)	-4.6	-5.8%	-1.8%	2.1%
CCCCn1c(N)c(N(CCOC)C(=O)CSCc2c(C)noc2C)c(=O)[nH]c1=O	/	-21.6%	?	-3.6%
